# PABP FP inh – blocks human PABP binding to poly(A) RNA. P11940. fluorescence polarization. inhibition, % at 35 µM. 290,000 compounds, 1% hits. AID 2014;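 active = 50% or more with normal probe brightness, or confirmed in later tests; inconclusive = above 50% with abnormal brightness, or retests that disagree; inactive = below 50% or failed in later tests; about a fifth of its hits are not listed in these tables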;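 note: calls also rest on retests at 20 µM and on dose response follow-up; controls were probe without protein and protein plus probe with vehicle; some compounds called inactive have numbers as strong as hits; many hits fall short of the cut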
# UUG fidelity – modulators of start codon recognition fidelity in yeast | S. cerevisiae UUG-firefly luciferase reporter, luminescence/redox ratio | activity score, % at 18.7 µM | 350,000 compounds, 0.13% hits;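 active = replicate mean at a twofold rise or more, about +100% in these data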;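 note: firefly luciferase made from a UUG start codon reports start codon fidelity; reporter light over untreated wells divided by growth signal over untreated wells; some hits fall short of that in this replicate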
# Env fusion inh – inhibitors of HIV Env-mediated cell fusion. HeLa-JRFL Env/CEM21 cell fusion, luciferase. inhibition, % at 12.3 µM. AID 651610. 360,000 compounds, 1.1% hits;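 active = mean replicate inhibition score of at least 50 and every replicate individually at or above 50; inconclusive = only one of the two criteria met; inactive = mean below 50 and not all replicates reaching 50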;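 note: 0% = plate neutral controls and 100% = maraviroc near 300 nM; one replicate is shown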
# CSC inhib – blocks cancer stem cells | cancer stem cell-like cells viability, luminescence | inhibition, % at 7.5 µM | 300,000 compounds, 1.1% hits;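 active = mean at 75% or more and at least half the replicates too; inconclusive = mean and replicates disagree; tested in HMLE shEcad cells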;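 note: 0% = median of negative and 100% = median of positive control wells; the first replicate is given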
# eIF4H FP inh – inhibitors of RNA binding by human eIF4H | inhibition, % at 35 µM | 290,000 compounds, 0.94% hits | AID 2012 | eIF4H fluorescence polarization binding assay;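 active = 50% or more with normal probe brightness, or confirmed in later tests; inconclusive = above 50% with abnormal brightness, or retests that disagree; inactive = below 50% or failed in later tests; about a fifth of its hits are not listed in these tables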;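 note: calls also rest on retests at 20 µM and on dose response follow-up; 0% = protein and probe with vehicle and 100% = probe without protein; strong numbers were not always called active; many hits fall short of the cut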
# MT1-MMP act inh – inhibitors of human MT1-MMP activation | HT1080 RFP-PRO-GFP cells, GFP/RFP ratio fluorescence, overnight; percent of plate control window, DMSO zero | GFP/RFP ratio change, % at 20 µM | 360,000 compounds, 0.061% hits | AID 651647;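 active = GFP/RFP ratio change of at least 30% with cell ATP level not reduced by more than half and red fluorescence within 50% of control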; note: strong numbers were not always called active
#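 system = RFP-PRO-GFP reporter HT1080 cells | dosing = 20 µM single dose, 1% DMSO | timing = overnight cell settling, then overnight compound exposure, 37 °C, 5% CO2 | read-out basis = GFP/RFP fluorescence ratio | controls = DMSO and RFP-L50D-GFP cell wells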
# Rce1 inhib – blocks yeast Ras-converting enzyme; calls only; Q03530; yeast membranes, quenched prenylated peptide cleavage fluorescence; 290,000 compounds, 0.27% hits;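 active = fall in fluorescence gain of 50% or more versus controls, with final raw signal at or below 3038400; inconclusive = same 50% fall but final raw signal above 3038400; inactive = fall in fluorescence gain under 50%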;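 note: plate controls were neutral control wells for no effect and wells lacking membranes for full effect; tested at 10 µM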
# Target sequence (Q03530 whole entry, looked up): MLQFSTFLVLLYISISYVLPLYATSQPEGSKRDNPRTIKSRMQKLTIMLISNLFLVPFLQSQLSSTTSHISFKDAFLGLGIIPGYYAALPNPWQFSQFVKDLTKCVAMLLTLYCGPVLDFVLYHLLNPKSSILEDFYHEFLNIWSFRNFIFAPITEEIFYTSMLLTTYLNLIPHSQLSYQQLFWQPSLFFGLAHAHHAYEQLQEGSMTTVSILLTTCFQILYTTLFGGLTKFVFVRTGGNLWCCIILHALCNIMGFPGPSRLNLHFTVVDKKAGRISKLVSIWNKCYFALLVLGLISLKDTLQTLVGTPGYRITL
# MT1-MMP act inh RFP – also measured in MT1-MMP act inh; calls as there; RFP signal change, %; measured here: RFP expression control read;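 0 = vehicle wells; hits needed this value within 50% of zero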
# Numbers without * were called inactive; i = inactive; ? = inconclusive; . = no result given. These rows are one share of the data, so the mix of outcomes need not match the whole.
SMILES,PABP FP inh,UUG fidelity,Env fusion inh,CSC inhib,eIF4H FP inh,MT1-MMP act inh,MT1-MMP act inh RFP,Rce1 inhib
CC(NC(=O)c1ccccc1SCC(=O)N1CCCC1)c1ccc(F)cc1 (stereo not given),5,-15,.,-12,6,-1,-1,i
CC(C)(C)N(Cc1ccccc1)C(=O)COC(=O)CNC(=O)c1ccco1,.,-13,-3,-20,.,5,1,i
O=C1CC(c2ccccc2)CN1Cc1ccccc1 (stereo not given),-9,14,11,0,-7,5,5,i
CC(C)[C@H](NC(=O)OC(C)(C)C)C(=O)N/N=C/c1ccc2nccnc2c1,5,.,16,-10,1,-4,-5,i
CCN(CC)c1ccc(/C=N/NC(=O)c2cccc(N3CCCC3=O)c2)cc1,0,.,-7,18,2,4,4,i
CCOC(=O)N1CCN(Cc2nc3c(c(=O)[nH]c(=O)n3C)n2Cc2cc(C)ccc2C)CC1,-2,12,.,.,-1,-8,-1,i
OC[C@@H]1CN(CCN2CCOCC2)C[C@H](n2cnc3c(NC4CCC4)ncnc32)O1,.,-15,-80,.,.,2,7,.
COc1ccccc1NC(=O)COC(=O)C1=NN(c2ccccc2)C(=O)CC1,.,-5,-5,-10,.,.,.,.
O=C(Nc1nc2c(s1)CN(Cc1ccccc1)CC2)c1c(F)cccc1F,-1,.,-15,-10,34,-11,3,i
O=C(CNC(=O)c1ccco1)NCC(c1ccco1)N1CCCCC1 (stereo not given),.,-14,0,.,.,0,3,.
CC(/C=C1\SC(=S)N(CCC(=O)Nc2cccc(C(=O)O)c2)C1=O)=C\c1ccccc1,28,-4,9,.,47,1,8,i
NC(=O)c1cc2ccccc2o/c1=N/NC(=O)c1ccccc1,-3,-12,-15,-2,-5,2,-1,i
CCOC(=O)/C(=C/Nc1ccc(F)c(F)c1)[N+](=O)[O-],4,-19,.,10,1,3,-1,i
COCCNC(=O)c1ccc(-n2c(SCc3cc(F)ccc3F)nc3ccccc3c2=O)cc1,0,27,.,.,-7,3,-4,i
COc1ccc(-c2csc(NC(=O)CSCC(=O)Nc3cc(C)on3)n2)cc1OC,.,20,.,-3,.,14,-2,i
COc1cc(/C=N/NC(=S)NC2CC3CCC2C3)ccc1O (stereo not given),5,-40,-6,31,-5,2,-2,i
O=C(OCc1c(Cl)cccc1Cl)c1ccccn1,-6,-9,.,-7,-5,-1,4,i
CN1C(=O)CSc2ccc(NC(=O)NCc3ccc(F)cc3)cc21,-15,.,16,-14,-4,2,-2,i
COC(=O)c1cc(C)sc1NC(=O)C1CC=CCC1C(=O)O (stereo not given),-1,-6,.,-15,-10,3,3,i
C(=C\c1ccccc1)/CN1CCN(C(c2nnnn2C2CCCC2)C2CC2)CC1 (stereo not given),.,4,-24,.,.,2,2,.
Cc1c(NC(=O)c2ccc3c(c2)C(=O)N(CC2CCCO2)C3=O)cccc1C(=O)O (stereo not given),-4,-15,.,-15,-2,1,4,i
COc1cc(F)ccc1S(=O)(=O)NCc1cccnc1,1,-5,7,-13,-1,-3,-1,i
CCN(Cc1ccccc1)C(c1ccc(C(F)(F)F)cc1)c1nnnn1C(C)(C)C (stereo not given),.,-9,.,24,.,-15,-19,i
COc1ccc(Nc2nc(N)nc(CN3CCC(C)CC3)n2)cc1,11,-16,18,0,-1,1,6,i
O=C(c1ccco1)N1CCN(c2ncnc3c2oc2ccccc23)CC1,-11,-14,.,-19,10,-5,4,i
O=C(NCc1ccccn1)c1cc(-c2ccccc2Cl)nc2ccccc12,0,-31,.,-6,-6,-6,-6,i
O=C(NC1CC1)c1cc(=O)c2ccccc2o1,-2,-13,-22,-12,4,-1,0,i
CCOc1ccc(-n2c(=O)c3sccc3n(Cc3cccc([N+](=O)[O-])c3)c2=O)cc1,?,.,30,-14,4,1,0,i
CCc1cccc(NC(=O)Cn2c(=O)n(CCC(=O)NCC3CCCO3)c(=O)c3cc(OC)c(OC)cc32)c1 (stereo not given),-8,-5,7,-2,-10,0,2,.
CC(NC(=O)Cc1cccs1)C(c1cccs1)N1CCN(c2ccccc2)CC1 (stereo not given),.,-2,.,-14,.,2,-10,i
CCOC(=O)N1CCC(Nc2c(Nc3ccc(F)cc3)c(=O)c2=O)CC1,2,-6,-14,-9,-4,1,-1,i
O=C(CCCn1c(=O)c2cccn2c2cccnc21)N1CCN(c2ccccc2F)CC1,.,-2,2,-11,.,2,3,i
Cn1ncc(Cl)c1C(=O)N1CCN(c2ncccn2)CC1,0,.,-16,-15,2,-2,3,i
c1ccc(-c2nc3ccccc3c3nc4ccccc4n23)cc1,1,.,-20,0,5,-6,-6,i
O=C(COC(=O)Cc1cccc2ccccc12)Nc1ccccc1-c1ccccc1,-9,.,-9,3,-8,-4,-3,i
CCCCN1C(=O)C(CC(=O)NC2CC2)CC(C(=O)N(C(C)C)C(C)C)=C1C (stereo not given),.,-8,16,.,.,0,4,.
COc1ccc(-c2cc([C@H]3[C@@H]4C=CCC[C@@]4(C)C(=O)N3Cc3ccccc3)ccc2F)cc1,-7,-12,4,122*,-12,-2,-3,i
O=C1C(=Cc2cn(-c3ccccc3)nc2-c2ccc(OCc3ccccc3F)cc2)SC(=S)N1CCS(=O)(=O)O,.,2,-11,.,.,1,5,.
O=S(=O)(c1cccs1)n1cccn1,0,-4,-157,.,2,-2,9,i
Cc1c(Cl)cccc1NC(=O)CCN1CCCCCC1,35,-19,7,-7,-9,3,7,i

# Part of the list above, set out differently:
mol | PABP FP inh | UUG fidelity | Env fusion inh | CSC inhib | eIF4H FP inh | MT1-MMP act inh | MT1-MMP act inh RFP | Rce1 inhib
COc1ccc(-c2csc(NC(=O)CSCC(=O)Nc3cc(C)on3)n2)cc1OC | . | 20 | . | -3 | . | 14 | -2 | i
COc1cc(/C=N/NC(=S)NC2CC3CCC2C3)ccc1O (stereo not given) | 5 | -40 | -6 | 31 | -5 | 2 | -2 | i
O=C(OCc1c(Cl)cccc1Cl)c1ccccn1 | -6 | -9 | . | -7 | -5 | -1 | 4 | i
CN1C(=O)CSc2ccc(NC(=O)NCc3ccc(F)cc3)cc21 | -15 | . | 16 | -14 | -4 | 2 | -2 | i

# Ordered by value in Env fusion inh (descending): 4 from the list above.
Molecule | Env fusion inh
CN1C(=O)CSc2ccc(NC(=O)NCc3ccc(F)cc3)cc21 | 16
CC(/C=C1\SC(=S)N(CCC(=O)Nc2cccc(C(=O)O)c2)C1=O)=C\c1ccccc1 | 9
COc1cc(F)ccc1S(=O)(=O)NCc1cccnc1 | 7
CCOC(=O)N1CCC(Nc2c(Nc3ccc(F)cc3)c(=O)c2=O)CC1 | -14

# More results.
SMILES,PABP FP inh,UUG fidelity,Env fusion inh,CSC inhib,eIF4H FP inh,MT1-MMP act inh,MT1-MMP act inh RFP,Rce1 inhib
COc1ccccc1NC(=O)COn1nnc2ccc(S(=O)(=O)N3CCOCC3)cc21,-7,.,6,-11,-3,2,1,i
CC12C(=O)N(c3ccc(C(=O)N4CCOCC4)cc3)C(=O)C1C1c3ccccc3C2c2ccccc21 (stereo not given),-14,.,-8,-3,-8,.,.,i
O=C(CC(c1ccccc1)c1ccccc1)Nc1ccc2c(c1)OCCO2,-4,-2,.,16,-8,-8,-10,.
COc1cc(Cl)c(CN2CCCC(CO)(Cc3ccccc3)C2)cc1OC (stereo not given),-4,2,15,6,0,-1,-1,i
CC(C)(C)S(=O)N1Cc2cn(Cc3ccccc3)c(=O)cc2[C@@H]1CCO (stereo not given in full),.,-1,-11,.,.,-1,2,.
O=C1C2C(c3ccccc3)(C(=O)N1c1ccc(Cl)cc1)C2(c1ccccc1)c1ccccc1 (stereo not given),11,.,31,75*,0,-6,-7,i
CCC(=O)N1CCc2cc(S(=O)(=O)NC(C(=O)NC3CCCc4ccccc43)C(C)C)ccc21 (stereo not given),-6,-17,.,-4,0,1,4,i
OCCNCc1ccc(-c2ccccc2)cc1,-1,.,-14,6,-5,6,5,i
O=C(Nc1cccnc1)c1cc(-c2ccc(F)cc2)on1,-10,.,7,6,2,-1,-4,i
CCc1ccc2[nH]c(=O)c(-c3ccccc3)c(O)c2c1,-2,-8,-7,.,-3,0,7,i
CCc1nnc(SCC(=O)N2CCc3ccccc32)n1CC,12,-15,3,-4,4,1,1,i
CCc1nc2oc3ccccc3c(=O)c2cc1C(=O)OC,12,-5,-28,2,-1,-1,1,i
CCC1CN(C(=O)N2CCC(C(=O)NCc3ccccc3C)CC2)c2ccccc2O1 (stereo not given),5,-25,4,-3,30,4,-6,i
O=C(NC(=S)Nc1ccccc1N1CCOCC1)c1cccc([N+](=O)[O-])c1,-2,-19,-24,59,10,5,-2,i
O=C(Cn1cnc([N+](=O)[O-])c1)c1ccc(Cl)cc1,.,1,-15,-1,.,4,5,i
Cc1c2cnn(CC(=O)NCCN3CCOCC3)c(=O)c2c(C)n1Cc1ccccc1,0,-9,-40,2,-7,1,5,i
Cc1nn(-c2ccccc2)c(C)c1/C=N/NC(=O)c1cc(-c2ccccc2)n[nH]1,16,.,.,73,6,23,0,i
CCC(C)(C)n1nnnc1C(c1ccc2ncccc2c1)N1CCCCCC1 (stereo not given),3,-11,29*,-14,-11,-6,-7,i
Cc1ccc(NC(=O)C2(C)CCN2C(=O)Cc2ccc(C(C)(C)C)cc2)cc1C (stereo not given),.,4,14,.,.,19,-15,.
CCOC(=O)N1CCN(C(=O)c2ccc3c(c2)N(Cc2ccc(F)cc2)CCS3)CC1,2,1,25,50,-8,-5,-19,i

# Compound profiles (already shown).
# COC(=O)c1cc(C)sc1NC(=O)C1CC=CCC1C(=O)O (stereo not given) is listed with PABP FP inh: -1; UUG fidelity: -6; Env fusion inh: .; CSC inhib: -15; eIF4H FP inh: -10; MT1-MMP act inh: 3; MT1-MMP act inh RFP: 3; Rce1 inhib: i
# O=C(NCc1ccccn1)c1cc(-c2ccccc2Cl)nc2ccccc12 is listed with PABP FP inh: 0; UUG fidelity: -31; Env fusion inh: .; CSC inhib: -6; eIF4H FP inh: -6; MT1-MMP act inh: -6; MT1-MMP act inh RFP: -6; Rce1 inhib: i
# O=C(Cn1cnc([N+](=O)[O-])c1)c1ccc(Cl)cc1 is listed with PABP FP inh: .; UUG fidelity: 1; Env fusion inh: -15; CSC inhib: -1; eIF4H FP inh: .; MT1-MMP act inh: 4; MT1-MMP act inh RFP: 5; Rce1 inhib: i

# From PubChem
